# Vaccinia Venus: inhibitors of vaccinia virus (Venus reporter). Vaccinia virus Venus reporter expression, fluorescence. Potency, µM (doses to about 36.5 µM), for the others: at the highest dose activity change, negative = inhibition, most hits filed as inhibitors. 330,000 tested, 0.46% active. AID 720580; active means well fitted inhibition curve with a large enough effect; inconclusive means small, poorly fitted or top-dose-only effect; inactive means no such curve, though single readings can be large or run the other way; tested in A549 cells; also: nearly all actives have a fitted effect of over 30% in size; inactives centre near -10
# Vaccinia mCherry: inhibitors of vaccinia virus infection (mCherry reporter signal); Vaccinia virus mCherry reporter infection, fluorescence; about a quarter of the inactives have no number; Potency, µM (highest dose often 36.5 µM), for inactives: at the highest dose activity change, negative = inhibition, actives largely listed as inhibitors; 310,000 tested, 0.63% active; AID 720579; active = well fitted inhibition curve with a large enough effect; inconclusive = small, poorly fitted or top-dose-only effect; inactive = no such curve, though single readings can be large or run the other way; tested in A549 cells; also: nearly all actives have a fitted effect of over 35% in size; inactives centre near -10
# * hit, by the source's call; i = inactive; ? = inconclusive; . = not tested or not shown; [ ] = remark or other dose. % is scaled to controls: 0 for no effect and ±100 for the full control effect; potency is read from the fitted curve at half-maximal effect.
SMILES,Vaccinia Venus,Vaccinia mCherry
CC(C)c1ccc(OCC(=O)N2CCN(C)CC2)c(Br)c1,-11.6%,i
CSc1ccccc1NC(=O)CN(C)Cc1ccc(Br)cc1,-3.6%,-8.0%
Cc1[nH]c2ccccc2c1C(=O)CN(C)c1ccccc1,-17.3%,-15.5%
CCOc1ccc2c(c1)c(=O)c(S(=O)(=O)c1ccc(Cl)cc1)cn2Cc1ccccc1C,-5.4%,0.8%
CC(NC(=O)COc1cccnc1[N+](=O)[O-])c1ccc(Cl)cc1 (stereo not drawn),-3.0%,-12.0%
CCCCn1nnnc1SCC(=O)c1ccc(C)c(C)c1,-21.4%,-4.0%
C[C@@H]1CCCCO[C@@H](CN(C)Cc2ccncc2)[C@@H](C)CN([C@H](C)CO)C(=O)c2cc(NC(=O)c3ccccc3)ccc2O1,-17.3%,-1.4%
COc1cccc(NC(=O)C(=O)NCC2CCCN2S(=O)(=O)c2ccccc2)c1 (stereo not drawn),-16.3%,i
CC[C@@]12C(=O)N(c3cccc(Cl)c3)C(=O)N1[C@H](c1cccc(C)c1)[C@@H]1C(=O)N(Cc3ccccc3)C(=O)[C@@H]12,-20.9%,-2.0%
Cc1cc(C)c(S(=O)(=O)N2CCCC(C(=O)NC3CC3)C2)c(C)c1 (stereo not drawn),-11.3%,-17.8%
CC(C)C[C@H]1CN(CCCC[C@H]2CNC(=O)C(=O)N2CCc2ccccc2)C(=O)C(=O)N1Cc1ccccc1,-5.0%,20.2%
CCOC(=O)[C@]12Cc3ccccc3[C@H]1N(CCC(=O)OC)C(=O)c1cc(OC)ccc12,-12.2%,-7.5%

# 7 structures from above, ordered by count of non-hydrogen atoms, rising.
SMILES,Vaccinia Venus,Vaccinia mCherry
CC(C)c1ccc(OCC(=O)N2CCN(C)CC2)c(Br)c1,-11.6%,i
Cc1cc(C)c(S(=O)(=O)N2CCCC(C(=O)NC3CC3)C2)c(C)c1 (stereo not drawn),-11.3%,-17.8%
COc1cccc(NC(=O)C(=O)NCC2CCCN2S(=O)(=O)c2ccccc2)c1 (stereo not drawn),-16.3%,i
CCOC(=O)[C@]12Cc3ccccc3[C@H]1N(CCC(=O)OC)C(=O)c1cc(OC)ccc12,-12.2%,-7.5%
CCOc1ccc2c(c1)c(=O)c(S(=O)(=O)c1ccc(Cl)cc1)cn2Cc1ccccc1C,-5.4%,0.8%
CC[C@@]12C(=O)N(c3cccc(Cl)c3)C(=O)N1[C@H](c1cccc(C)c1)[C@@H]1C(=O)N(Cc3ccccc3)C(=O)[C@@H]12,-20.9%,-2.0%
CC(C)C[C@H]1CN(CCCC[C@H]2CNC(=O)C(=O)N2CCc2ccccc2)C(=O)C(=O)N1Cc1ccccc1,-5.0%,20.2%

# Next part.
SMILES,Vaccinia Venus,Vaccinia mCherry
Cc1ccc(C(c2sc3nc(C)nn3c2O)N2CCN(C(=O)c3ccco3)CC2)cc1 (stereo not drawn),-11.1%,i
O=C(NCc1ccccc1)C1CCN(S(=O)(=O)c2cccc3cccnc23)CC1,-7.7%,i
CCCCNC(=O)C1(C)CCN1C(=O)c1cc(-c2ccccc2)cs1 (stereo not drawn),4.8%,i
CN(C(=O)c1ccc(NC(=O)C2CCCN(C(=O)OC(C)(C)C)C2)cc1)C1CC1 (stereo not drawn),-25.9%,i
COCc1cc(=O)n2[nH]c(C(F)(F)F)nc2n1,-6.3%,.
CC(C)OCCCNC(=O)c1c(N)n(/N=C/c2cccs2)c2nc3ccccc3nc12,-3.9%,-8.0%
COc1ccc(CN2C(=S)NC(C)(C)CC2(C)O)cc1 (stereo not drawn),-16.6%,-18.4%
CCN1C(=O)/C(=C/C2=Cc3ccccc3OC2C)SC1=S (stereo not drawn),8.6%,i
CCOC(=O)CSc1ncnc2c1nnn2-c1ccc(F)cc1,-11.9%,.
CC(C)(C)CNC(=O)c1cc2c(Br)ccc(Br)c2nc1N,3.4%,-15.6%
O=C(Nc1cc(Cl)ccc1N1CCOCC1)C1CC1,-13.9%,-19.1%
COc1ccc(C(C)NC(=O)c2cccc([N+](=O)[O-])c2)cc1OC (stereo not drawn),-10.5%,-6.3%

# Taken from above:
# Vaccinia Venus, CC(C)c1ccc(OCC(=O)N2CCN(C)CC2)c(Br)c1 : -11.6%
# Vaccinia mCherry, CC(NC(=O)COc1cccnc1[N+](=O)[O-])c1ccc(Cl)cc1 (stereo not drawn) : -12.0%

# Shown with two lines to a compound: 2 of the compounds above
# Every second line gives: Vaccinia Venus	Vaccinia mCherry
CCOC(=O)CSc1ncnc2c1nnn2-c1ccc(F)cc1
→ -11.9%	.
CC(C)(C)CNC(=O)c1cc2c(Br)ccc(Br)c2nc1N
→ 3.4%	-15.6%

# Other results follow:
SMILES,Vaccinia Venus,Vaccinia mCherry
CSc1nc2ccc(NC(=O)C3CC(=O)N(Cc4ccco4)C3)cc2s1 (stereo not drawn),-7.1%,-19.0%
CN(C)N1C(N)=C(C#N)C(c2ccc3c(c2)OCO3)C2=C1CC(C)(C)CC2=O (stereo not drawn),-7.0%,-11.2%
Cc1cc(OCc2cc(C(=O)NCCN3CCCCC3CO)no2)cc(C)c1Cl (stereo not drawn),?,-14.2%
COc1cccc(-c2nnc(NC(=O)c3ccc4ncsc4c3)o2)c1,-23.6%,-8.5%
O=C(Cc1ccc(Cl)cc1)Nc1cccnc1Cl,-9.4%,-2.9%
Cc1ccc(NC(=O)/C=C/c2ccc3c(c2)OCO3)nc1,-5.7%,-5.7%
CC1CN(O)C2CCc3nonc3C12O (stereo not drawn),-11.4%,.
CC(C)[C@H](NC(=O)N1c2ccccc2NC(=O)[C@@H]1C(C)C)C(=O)N1CCC(C(=O)O)CC1,-4.8%,-5.2%
CCc1ccc(NC(=O)C(C)OC(=O)c2ccc(NS(=O)(=O)c3ccc(C)c([N+](=O)[O-])c3)cc2)cc1 (stereo not drawn),?,?
COc1ccc(/C=C/C(=O)Nc2ccc3c(c2)CCC3)cc1OC,-28.9%,-27.1%
Cc1cc(C(=O)N/N=C/c2ccc(N3CCOCC3)cc2)c(C)o1,-5.7%,-4.8%
Cc1cc(C)cc(NC(=S)Nc2ccccn2)c1,-11.2%,-14.1%
COc1ccc(OC)c2sc(N(Cc3cccnc3)C(=O)c3ccco3)nc12,-8.0%,-18.5%
CNc1cc(C)nc(-n2nc(C)cc2C)n1,-5.0%,.
COCCCn1c(SCC(=O)Nc2nc3ccccc3s2)nnc1-c1ccoc1C,-8.0%,i
CCOC(=O)c1ccccc1NC(=O)Cn1ncc2c1-c1ccccc1OC2,-11.4%,-2.7%
C[C@]12CCC3C(CC[C@]4(O)CC(O)CC[C@@]34C=O)[C@]1(O)CCC2C1=CC(=O)OC1 (stereo partly drawn),10µM*,?
COc1ccc(/C=C/c2nc(C#N)c(N3CCN(c4ccccc4)CC3)o2)cc1OC,-17.4%,-18.2%
Cc1oc2cc3oc(=O)c(CCC(=O)N4CCCCC4)c(C)c3cc2c1C,-5.3%,-16.0%
O=C(CSc1nnc(-c2ccncc2)o1)c1cccc([N+](=O)[O-])c1,?,?
COc1cccc(C(=O)c2sc(Nc3ccc(F)c(Cl)c3)nc2N)c1,-6.5%,-12.8%
Cc1c(C(=O)NCc2ccccc2CN2CCCC2)oc2ccccc12,-23.3%,?
O=C(CSc1nnc(-c2ccc(S(=O)(=O)N3CCCC3)cc2)o1)NCC1CCCO1 (stereo not drawn),4.47µM*,3.98µM*
CN(Cc1ccccc1)C(=O)Cn1nnc(-c2ccccc2)c1COc1ccccc1,-15.1%,11.4%
CCc1ccc(OCC(O)CNC(C)(C)C)cc1 (stereo not drawn),3.6%,-9.6%
CCOC(=O)c1cc2c(=O)n3ccccc3nc2n(CC2CCCO2)c1=NC(=O)c1ccccc1OCC (stereo not drawn),-20.2%,-22.3%
CN(C)c1ccc(NC(=O)CCN2C(=O)c3cccc([N+](=O)[O-])c3C2=O)cc1,6.8%,i
COc1ccc(/C=C/C(=O)c2cc(Br)ccc2OC(=O)c2ccco2)cc1OC,6.2%,i
CCCCc1ccc(NC(=O)C2CCCO2)cc1 (stereo not drawn),-5.0%,.
Fc1ccc(-c2nnn(Cc3ccc(F)cc3Cl)n2)cc1,-7.4%,i
CN1C(=O)C(=O)N(CC(=O)N2CCc3ccccc32)C1=O,-31.6%,.
CCCCC(=O)NC(c1ccccc1OC)c1ccc2cccnc2c1O (stereo not drawn),-27.6%,7.94µM*
O=C(Cn1ccc2ccccc2c1=O)NCCC(=O)N1CCCCC1,-3.8%,i
CC1(C)N=C(N)N=C(N)N1c1ccc(Oc2ccc(Cl)cc2)c(Cl)c1,?,?
COc1ccc(NC(=O)Cn2nnc(C(=O)NCc3ccc(C)cc3)c2N)cc1Cl,6.2%[7.34 µM],4.1%[7.34 µM]
Cc1ccc(SCC(=O)Nc2ccc(F)cc2[N+](=O)[O-])cc1C,-12.4%,-13.9%
COc1ccccc1NC(=O)C1(C)Cc2ccccc2C(=O)O1 (stereo not drawn),-17.2%,i
S=C1NCN(C2CCCCC2)CN1Cc1ccccc1,-14.0%,1.7%
CCOC(CNCc1cc(C)c2[nH]c3ccccc3c2c1C)OCC,?,?
CC(C)(C)c1ccc(/C=C/C(=O)Nc2cccnc2)cc1,-19.8%,-19.9%
Cc1ccc2nc(SCC(=O)Nc3c(F)cccc3F)[nH]c2c1,0.2%,i
CCOC(=O)c1c(C)[nH]c(C)c1C(=O)CSc1nc2ccccc2c(=O)n1-c1ccc(Cl)cc1,?,-14.5%
Cc1cc(C)cc(OCc2ccc(C(=O)N3N=C(C(F)F)CC3(O)C(F)F)o2)c1 (stereo not drawn),?,?
O=C(NC(=S)Nc1ccc2oc(=O)ccc2c1)c1cccc(Cl)c1,3.6%,-13.6%
O=C(NC(=S)N1CCN(c2ccccc2)CC1)c1c(F)cccc1F,-3.1%,-3.4%
CC1=C/C(=N\NC(=O)c2ccc(O)cc2)CC1,-23.5%,0.0%
CSc1nnc([C@@H]2CCCN2C(=O)OC(C)(C)C)o1,-9.5%,-1.7%
Cc1ccc(OCC(=O)N(Cc2ccccc2)C(C)C)c([N+](=O)[O-])n1,-11.8%,-2.9%
CC(=O)c1cccc(Nc2cc(C)nc3nc(Cc4ccccc4)nn23)c1,-4.1%,-1.6%
COc1cc2[nH]c(=O)n(CCCC(=O)NC3CCCCC3)c(=O)c2cc1OC,-0.8%,-11.6%
COc1ccc2c(c1)CCc1c(C(=O)Nc3cc(OC)c(Cl)cc3OC)noc1-2,-3.1%,-0.5%
CCOc1ccc(NC2c3ccccc3C(=O)N2Cc2ccco2)cc1 (stereo not drawn),-25.1%,?
CN1C(=O)C(=Cc2ccccc2OCc2ccc(C(=O)O)cc2)C(=O)N(C)C1=O,9.6%,i
CN1C(=O)C(O)(CC(=O)/C=C/C=C/c2ccccc2)c2ccccc21 (stereo not drawn),-12.3%,-6.0%
COc1ccc(CC(=O)O/N=C(\N)Cc2ccc([N+](=O)[O-])cc2)cc1,-0.1%,-12.7%
COCc1cc(C2C(C(=O)c3ccco3)=C(O)C(=O)N2CCOCCO)ccc1O (stereo not drawn),-6.8%,.
O=C(NCc1ccncc1)[C@@H]1CCCN1C(=O)[C@@H]1CCCN1C(=O)c1c(F)cccc1F,6.9%,4.6%
O=C(O)c1ccc(-c2cccc([N+](=O)[O-])c2)o1,5.2%,-8.4%
CNC(=S)NCC(O)c1ccc([N+](=O)[O-])cc1 (stereo not drawn),-3.7%,-7.3%
CC1CCCCN1S(=O)(=O)c1ccc2[nH]c(=O)cc(C(=O)NCCc3ccc(Cl)cc3)c2c1 (stereo not drawn),-8.6%,-2.8%

# The list goes on:
SMILES,Vaccinia Venus,Vaccinia mCherry
Cc1c(NC(=O)OCc2ccccc2)c(=O)n(-c2ccccc2)n1C,-6.4%,-18.6%
O=C(Nc1ncc(Cc2ccc(F)cc2)s1)c1ccc2c(c1)CC(c1ccccc1)OC2=O (stereo not drawn),-9.9%,-6.8%
COc1ccc(C(=O)/C=C/c2cn(CC(O)CN3CCc4ccccc43)c3ccccc23)cc1OC (stereo not drawn),-19.5%,?
CC(=O)c1c(O)c(C)c(O)c2c1OC1=CC(=O)/C(=C(/C)N)C(=O)C12C (stereo not drawn),?,?
CCOC(=O)c1ccccc1NC(=O)n1ncc2cc(Cl)ccc21,-1.9%,13.2%
O=C(CSc1ncc(-c2ccccc2)n1-c1ccccc1)NCc1ccco1,-8.7%,-1.7%
Cc1cccc(C)c1NC(=O)c1ccc2c(c1)N(Cc1cccc(Cl)c1)C(=O)c1ccccc1S2=O (stereo not drawn),-8.9%,-17.4%
CCCNC(=O)c1oc2ccc3c(c2c1C)C=CC(C)(C)O3,-12.1%,-18.8%
COc1cccc(CNC(=O)[C@@H]2CCCN2C(=O)[C@@H]2CCCN2C(=O)OC(C)(C)C)c1,?,?
CCCCN(C(=O)c1ccc(Br)o1)C1CCS(=O)(=O)C1 (stereo not drawn),-16.1%,-16.8%
Clc1ccc2[nH]cc(-c3nnnn3-c3ccccc3)c2c1,?,-19.9%
O=C(COC(=O)C(O)c1ccccc1)NC12CC3CC(CC(C3)C1)C2 (stereo not drawn),-15.9%,.
Cc1ccc(N2C(=O)c3n[nH]c(C)c3C2c2ccc(C(C)C)cc2)cc1 (stereo not drawn),-14.5%,-19.5%
O=C1CN(C(=O)c2cc([N+](=O)[O-])ccc2Cl)C(c2ccccc2)c2cc(F)ccc2N1 (stereo not drawn),-20.8%,-28.0%
COc1ccc(C(=O)NCC(c2ccc3c(c2)OCO3)N2CCN(C)CC2)cc1 (stereo not drawn),-1.5%,-4.3%
Cc1c(C)c2ccc(OCC(=O)N3CC[C@@]4(O)CCCC[C@H]4C3)cc2oc1=O,2.3%,-0.3%
Cc1ccccc1-c1cc(=O)c2ccccc2o1,-21.9%,i

# Assay outcomes (PubChem)
